HSD17B inhib – HSD17B dehydrogenase inhibition. AID 893. actives 7.6% (n = 75,000). Potency, µM (series often up to 57.1 µM), without a hit: at the top dose activity change, negative = inhibition, most hits filed as inhibitors. recombinant HSD17B10, NADH fluorescence kinetic; many of its hits are not listed in these tables. Q99714; active means well fitted inhibition curve with a large enough effect; inconclusive means small, poorly fitted or top-dose-only effect; inactive means no such curve, though single readings can be large or run the other way;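 further: the protocol describes HADH2 (HSD17B10) and not the HSD17B4 of the title; nearly all actives have a fitted effect of over 70% in size; most hits overshoot -100% by far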
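His-tagged E. coli-expressed HADH2 at 20 nM in 100 mM Tris-HCl pH 9.0 with 0.01 % Tween-20, preincubated 15 min with compound at room temperature. Reaction with 1 mM NAD+ and 90 uM beta-hydroxybutyryl coenzyme A; NADH fluorescence (360/450 nm) read kinetically over 4 min, last minus first point.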
* marks the source's active call; other numbers are inactive results; ? = inconclusive; & = joins results of further samples; [ ] = dose if it differs, or a comment. On the % scale 0 is the no-effect control and ±100 the full control effect; potency means the concentration at half of the fitted maximal effect. The list is partial. The share of hits here may be higher or lower than overall.

COc1c(-c2ccccc2)oc2c(ccc3occc32)c1=O
- HSD17B inhib: 32µM*
Nn1c(SCC(=O)Nc2cccc(F)c2)nnc1C1CCCCC1
- HSD17B inhib: 2%
CCOc1ccc(NC(=O)CN(c2cc(C)cc(C)c2)S(=O)(=O)c2c(C)noc2C)cc1
- HSD17B inhib: 3%
COc1ccc(C(CC(=O)O)NC(=O)COc2ccccc2)cc1 (centres undefined)
- HSD17B inhib: 0%
COC(=O)c1ccccc1NC(=O)CSc1ccccc1
- HSD17B inhib: 3%
Cc1cc(Cl)c(S(=O)(=O)N2CCSCC2)cc1OCC(N)=O
- HSD17B inhib: 3%
O=C(NCCc1ccccc1)c1cnc2sccn2c1=O
- HSD17B inhib: 25µM*
Cc1ccc(C2N(c3ccc(Cl)c(Cl)c3)C(=O)C3CCCN32)o1 (centres undefined)
- HSD17B inhib: 13%
CCCCCCn1c(NCC)nc2c1c(=O)[nH]c(=O)n2C
- HSD17B inhib: 5%
CC1(C)NC(=O)N(CC(O)COc2ccc(-c3ccc(C#N)cc3)cc2)C1=O (centres undefined)
- HSD17B inhib: 13µM*
Nc1ccc(C(=O)OCCCc2nc3ccccc3[nH]2)cc1
- HSD17B inhib: 3%
COc1ccc(C2CC(=O)NC3=C2C(=O)CCC3)cc1Cl (centres undefined)
- HSD17B inhib: -2%
CCOC(=O)N1CCN(c2ccc(Cl)c(Cl)c2)CC1
- HSD17B inhib: -7%
C=CCSC1=N/C(=C\C=C\c2ccco2)C(=O)S1
- HSD17B inhib: 16µM*
Cc1ccc(-n2nc3c(c2NC(=O)c2c(-c4ccccc4Cl)noc2C)CS(=O)(=O)C3)c(C)c1
- HSD17B inhib: 16%
CCCC(=O)Nc1ccc(NC(=O)CCc2ccccc2)cn1
- HSD17B inhib: 3%
COCCCNC(=O)c1cc2c(=O)n(C)c3ccccc3c2n1C
- HSD17B inhib: 32µM*
COCCOC(=O)C1=C(C)NC2=C(C(=O)CCC2)C1c1ccc2c(c1)OCO2 (centres undefined)
- HSD17B inhib: -6%
CCN1CCN(C(c2cccs2)C(C)NS(=O)(=O)c2ccc(Br)cc2)CC1 (centres undefined)
- HSD17B inhib: -1%
O=CNC1CCCc2c1[nH]c1ccc(Cl)cc21 (centres undefined)
- HSD17B inhib: 6%
COc1ccc(/C=N/n2cnnc2SCc2ccc(OC)cc2)cc1
- HSD17B inhib: -10%
CCOc1cccc(C(=O)Nc2cccnc2)c1
- HSD17B inhib: 9%
CC1=C(C)SC(=C(C#N)c2nnc(N3CCOCC3)n2-c2ccccc2)S1
- HSD17B inhib: 14%
O=C(Nc1nc2c(s1)C(=O)CCC2)c1ccccc1
- HSD17B inhib: -3%
CCN1CCN(CCCNC(=O)Cn2cc3c(n2)CCCC3)CC1
- HSD17B inhib: 2%

O=C(c1ccco1)N1CCN(C(=O)c2oc(=O)c3ccccc3c2-c2ccccc2)CC1
- HSD17B inhib: -1%
O=C(c1cccc(F)c1)N1CCN(C(=O)C2CC2)CC1
- HSD17B inhib: 2%
COc1ccc(Cl)cc1-c1nc(-c2ccc(Br)o2)no1
- HSD17B inhib: 4%
COc1cccc(C2NC(CCSC)(C(=O)O)C3C(=O)N(C(C)C)C(=O)C23)c1O (centres undefined)
- HSD17B inhib: 4%
O=c1c2c(-c3ccccc3)csc2nc2n1CCC2
- HSD17B inhib: -12%
CCCCn1c(CN2CCN(C(=O)OCC)CC2)nc2c1c(=O)n(C)c(=O)n2C
- HSD17B inhib: 7%
Cc1cnc(C(=O)OCC(=O)NC(=O)NC(C)C)cn1
- HSD17B inhib: 8%
CCOc1ccc(Br)cc1/C=N/O
- HSD17B inhib: -2%
C=CCn1c(SCC(=O)Nc2sccc2C(N)=O)nc2sc(C)c(C)c2c1=O
- HSD17B inhib: ?
CC(C)c1ccc(OC(=O)NCCO)cc1
- HSD17B inhib: 0%
CN(CC(=O)N1CCN(C2CCCCC2)CC1)S(=O)(=O)c1cccc2nsnc12
- HSD17B inhib: -13%
Cn1nc(-c2ccc(N3CCOCC3)c(NC(=O)COc3ccccc3)c2)c2ccccc2c1=O
- HSD17B inhib: 5%
COc1cc(OC)cc(OCC(O)Cn2ccnc2)c1 (centres undefined)
- HSD17B inhib: 1%
Cc1ccsc1C(=O)OCC(=O)N1CC(=O)Nc2ccccc21
- HSD17B inhib: 4%
CC(C)(C)c1ccc(S(=O)(=O)/C=C\C#N)cc1
- HSD17B inhib: 16µM*
C=C(C)CNCCN
- HSD17B inhib: 0%[11.4 µM]
Cc1cc(NS(=O)(=O)c2ccc(NC(=O)COc3ccccc3C(C)C)cc2)no1
- HSD17B inhib: 4%
O=C(Cn1nnc(-c2ccccc2-n2cnnn2)n1)N1CCCCC1
- HSD17B inhib: 20%
Cc1csc(NC(=O)NC2(C(F)(F)F)Oc3ccccc3O2)n1
- HSD17B inhib: 25µM*
O=C(CN1CCc2ccccc2C1)N1CCN(S(=O)(=O)c2ccccc2)CC1
- HSD17B inhib: ?
COCCCNC(=O)C1CC(=O)N(CCc2ccc(OC)c(OC)c2)C1 (centres undefined)
- HSD17B inhib: -7%
O=C1CC(/C=C/c2ccco2)=Nc2ccccc2N1
- HSD17B inhib: 13µM*
CCC(=O)NCC(c1cccs1)N1CCOCC1 (centres undefined)
- HSD17B inhib: -9%
COc1ccc(OC)c(S(=O)(=O)N2CCC(C(=O)NCCc3ccc(OC)c(OC)c3)CC2)c1
- HSD17B inhib: -13%
O=C(NCCc1nc2ccccc2[nH]1)c1ccco1
- HSD17B inhib: 12%

The results go on.
Structure	HSD17B inhib
O=C(Nc1ccc(Cl)c(C(F)(F)F)c1)c1ccco1	0%
COCc1nnc(N)s1	3%
O=C(O)C1C2C=CC(C2)C1C(=O)NCCc1cccc(Cl)c1 (centres undefined)	0%
CC(C)(C)OC(=O)N1CCC(c2c(C(=O)O)cnn2-c2ccc(Cl)cc2)CC1	-25%
CCCSc1nnc(-c2ccccc2N)c(=O)[nH]1	-4%
Oc1cc(Cl)cc(Cl)c1Cl	-1%
Cc1ccc(C)c(N(CC(=O)NCc2ccco2)C(=O)CCC(=O)Nc2ccccn2)c1	13%
CCOc1ccc(-c2nnc(-c3ccncc3)o2)cc1	32µM*
Cc1ccc(NC(=O)C2CC(=O)NC(Nc3cccc(C)c3)=N2)cc1 (centres undefined)	-1%
CCN1CCN(S(=O)(=O)c2ccc(S(=O)(=O)NCC3CCCO3)cc2)CC1 (centres undefined)	12%
CCOc1ccc(C(=O)C2CCN(C(=O)c3ccccc3C(=O)O)CC2)cc1	16%
O=C1CC2CS(=O)(=O)CC2N1c1ccc(Oc2ccccc2)cc1 (centres undefined)	8%
CCOC(=O)C1=C(C)N=C2SC(C)C(=O)N2C1c1ccc(OCC)c(OCC)c1 (centres undefined)	7%
Cc1ccc(-n2c(SCC(N)=O)nnc2-c2cccnc2)c(C)c1	3%
COc1cccc(-n2c(Cc3cc(=O)[nH]c(=O)[nH]3)nnc2SCC(=O)N2CCCCC2)c1	5%
O=S(=O)(c1ccccc1)c1nc(-c2ccco2)oc1NCc1cccnc1	5%
COc1ccc(NC(=O)c2cccs2)cc1OC	-10%
CC(C)C(=O)Nc1ccccc1N1CCN(C(=O)c2ccccc2)CC1	-11%
COC(=O)C1(CO)NC(c2cccs2)C2C(=O)N(c3ccccc3)C(=O)C21 (centres undefined)	8%
CC(C)Cc1cc(C(=O)Nc2ccc3c(c2)OCO3)no1	-2%
CCCN1CCC(N2CCN(c3ccccc3OC)CC2)CC1	8%
COC(=O)c1ccc2c(c1)S(=O)(=O)NC(=NCCCN1CCOCC1)S2	-1%
N#CC1=C(N)N(c2ccccc2)C2=C(C(=O)CCC2)C1c1cccs1 (centres undefined)	16µM*
Cc1ncc(CO)c2cc(S(=O)(=O)c3ccc(F)cc3)c(=O)oc12	-7%
CCC(CCC(C)C1CCC2C3CCC4CC(O)CC[C@@]4(C)C3CC[C@@]12C)C(C)C (some centres undefined)	0%
COC(=O)c1ccc(C(=O)Nc2ccc(N)cc2N)cc1	4%
COCCNc1nc(-n2nc(C)cc2C)nc2sc3c(c12)CCCC3	25µM*
CCOC(=O)N1CCC(N2CC34C=CC(O3)C(C(=O)Nc3ccc(F)cc3)C4C2=O)CC1 (centres undefined)	2%
COc1cc2c(cc1OC)C(C)N(C(=O)CCN1C(=O)C3C4C=CC(C4)C3C1=O)CC2 (centres undefined)	-4%
COc1ccccc1C1NC(=O)CS1 (centres undefined)	4%
COc1ccccc1N1CCN(S(=O)(=O)c2ccccc2)CC1	1%
CCOC(=O)CCN1C(=O)[C@H]2[C@@H]3[C@H](O)[C@H](O)CC(=O)[C@H]3CC[C@H]2C1=O	1%&0%[11.4 µM]
COc1cccc(-n2nnc3c(=O)n(Cc4ccccc4F)cnc32)c1	?
O=C(CCN1C(=O)C2C3C=CC(C3)C2C1=O)Nc1ccccc1F (centres undefined)	12%
COC(=O)N1CCC[C@@]2(CCN(c3ccncc3)C2)C1	-4%
O=C(CSc1nnc(Cn2nnc3ccccc32)o1)N(Cc1ccc(F)cc1)c1ccccc1	-2%
Nc1nncn1C(=O)CCCOc1ccc(Cl)cc1Cl	-7%
FC(F)(F)c1cccc(Cl)c1	-3%
CC(=O)c1c(C)[nH]c(C(=O)NCc2ccccc2Cl)c1C	0%
CCC(C)NC(=O)CS(=O)Cc1nc(-c2cccc(OC)c2)oc1C (centres undefined)	-11%

Structural class, the compounds so far containing two or more sulfur atoms
Structure	HSD17B inhib
Cc1cc(Cl)c(S(=O)(=O)N2CCSCC2)cc1OCC(N)=O	3%
C=CCSC1=N/C(=C\C=C\c2ccco2)C(=O)S1	16µM*
CCN1CCN(C(c2cccs2)C(C)NS(=O)(=O)c2ccc(Br)cc2)CC1 (centres undefined)	-1%
CC1=C(C)SC(=C(C#N)c2nnc(N3CCOCC3)n2-c2ccccc2)S1	14%
C=CCn1c(SCC(=O)Nc2sccc2C(N)=O)nc2sc(C)c(C)c2c1=O	?
CN(CC(=O)N1CCN(C2CCCCC2)CC1)S(=O)(=O)c1cccc2nsnc12	-13%
CCN1CCN(S(=O)(=O)c2ccc(S(=O)(=O)NCC3CCCO3)cc2)CC1 (centres undefined)	12%
COC(=O)c1ccc2c(c1)S(=O)(=O)NC(=NCCCN1CCOCC1)S2	-1%

Continuation.
Structure	HSD17B inhib
Cc1cc(C(=O)N2CCN(C(c3ccccc3)c3ccccc3)CC2)no1	-1%
CC(=O)N(Cc1cc(=O)[nH]c2ccccc12)c1cccc(C)c1	?
Fc1ccc(C(c2nnnn2Cc2cccs2)N2CCN(C3CCCC3)CC2)cc1 (centres undefined)	-18%
CCN(C(C)=O)c1nnc(CSc2nc3ccccc3s2)s1	?
Cc1cccc(CNc2ncnc3ccc(-c4c(C)noc4C)cc23)c1	-4%
CC(C(=O)O)n1nc2ccccc2n1 (centres undefined)	0%
CN(C(=O)C1CCN(S(=O)(=O)c2cccs2)CC1)C1CCCCC1	14%
CN1CCN(C(=O)c2cc3sccc3n2CC(=O)c2ccccc2)CC1	0%
COC(=O)c1cc(=O)n2c(-c3ccccc3)csc2n1	6%
OC1CNCc2cc3c(cc21)OCCO3 (centres undefined)	11%
Cc1ccc(S(=O)(=O)N(C)CCCC(=O)N2CCOCC2)cc1	5%
CCCn1c(-c2ccc(F)cc2)nc2c(NCCN(C(C)C)C(C)C)nc(C)nc21	20µM*
CCOC(=O)Cc1[nH]nc2c1C(c1cccc(OC)c1OC)C(C#N)=C(N)O2 (centres undefined)	-7%
CC(C)=CCC/C(C)=C/CO/N=C1/C[C@@H](O)[C@@H](O)[C@@H]2[C@@H]3C(=O)N(Cc4ccccc4)C(=O)[C@H]3CC[C@H]12	-4%[11.4 µM]
COc1ccc(CCNC(=O)c2cc(-c3ccccc3O)n[nH]2)cc1OC	7%
CNC[C@H](O)c1ccc(OC(=O)C(C)(C)C)c(OC(=O)C(C)(C)C)c1	-1%[25.6 µM]
COc1cc(CN2CCC(C(=O)NC3CCCC3)CC2)ccc1O	-17%
COc1ccc(OC)c(NC2c3ccccc3C(=O)N2c2cccnc2)c1 (centres undefined)	-3%
COc1ccccc1CNC(=O)C1CCN(S(=O)(=O)N2CC(C)CC(C)C2)CC1 (centres undefined)	7%
O=C(NCC1CCCO1)C(C(=O)c1ccccc1)n1ccccc1=O (centres undefined)	-1%

4 structures from above, arranged by number of heavy atoms, smallest number first.
Structure	HSD17B inhib
CCN(C(C)=O)c1nnc(CSc2nc3ccccc3s2)s1	?
Cc1ccc(S(=O)(=O)N(C)CCCC(=O)N2CCOCC2)cc1	5%
COc1cc(CN2CCC(C(=O)NC3CCCC3)CC2)ccc1O	-17%
Fc1ccc(C(c2nnnn2Cc2cccs2)N2CCN(C3CCCC3)CC2)cc1 (centres undefined)	-18%

Continuation:
Structure	HSD17B inhib
CCS(=O)(=O)N1CCCC(C(=O)NC2CCCCC2C)C1 (centres undefined)	-4%
COc1ccc(OC)c(C(c2nnnn2CCc2ccccc2)N2CCC(C(N)=O)CC2)c1 (centres undefined)	-5%
O=C(O)C1C2CCC(C2)C1C(=O)Nc1nc2ccccc2s1 (centres undefined)	1%
O=C(Cc1cccs1)Nc1ccccn1	-13%
CCCCC(=O)N(C)C	0%
COc1cc(CNC2CCC(C)C2)cc(OC)c1 (centres undefined)	1%
CCCCCn1c(SCC#N)nc2cc(C(=O)NCC3CCCO3)ccc2c1=O (centres undefined)	?
COc1cc(CN(C(=O)c2ccco2)c2ccc(C)cc2)ccc1O	-11%
CC(C)c1c(O)nc(SCCC(=O)O)[nH]c1=O	-1%
CN1CCN(CCCN)CC1	0%[11.4 µM]
Cc1cccc(-c2nnc(NC(=O)c3ccc(Cl)cc3)o2)c1	3%
COc1ccc(Oc2ncc3nc(-c4ccc(Cl)cc4)c(=O)n(C)c3n2)cc1	1%

Screens from PubChem BioAssay.
